# Compound activity: PubChem, National Center for Advancing Translational Sciences (NCATS)
# Vaccinia mCherry: qHTS for Stage-Specific Inhibitors of Vaccinia Orthopoxvirus: mCherry Reporter Primary qHTS; Vaccinia virus mCherry reporter infection, fluorescence; about a quarter of the inactives have no number; Potency, µM (highest dose often 36.5 µM), inactives show at the highest dose activity change, negative = inhibition, usual class: inhibitors; actives 0.63% (n = 310,000); active = well fitted inhibition curve with a large enough effect; inconclusive = small, poorly fitted or top-dose-only effect; inactive = no such curve, though single readings can be large or run the other way; tested in A549 cells; note: nearly all actives have a fitted effect of over 35% in size; inactives centre near -10
# VACV Venus inh: qHTS for Stage-Specific Inhibitors of Vaccinia Orthopoxvirus: Venus Reporter Primary qHTS; Vaccinia virus Venus reporter expression, fluorescence; Potency, µM (titrated, usually from 36.5 µM), for the others: at the top dose activity change, negative = inhibition, actives largely listed as inhibitors; actives 0.46% (n = 330,000); active means well fitted inhibition curve with a large enough effect; inconclusive means small, poorly fitted or top-dose-only effect; inactive means no such curve, though single readings can be large or run the other way; tested in A549 cells; note: nearly all actives have a fitted effect of over 30% in size; inactives centre near -10
# * hit, by the source's call; i = inactive; u = inconclusive; x = no result given; & = joins results of further samples; [ ] = another dose, or the depositor's remark. % is set by controls: 0 for no effect and ±100 for the full control effect; potency is the fitted concentration of half-maximal effect. An unsorted share of the library (roughly 0.87% active in at least one column).
entry | structure | VACV Venus inh | Vaccinia mCherry
1 | CCCCOc1cccc(C(=O)N(Cc2ccc(N(C)C)cc2)C2CCS(=O)(=O)C2)c1 (stereo not given) | -14.5% | -13.4%
2 | O=C(/C=C/c1ccccc1)NC(NC(=S)Nc1ccc(C(=O)O)cc1)C(Cl)(Cl)Cl (stereo not given) | -7.9% | -9.1%
3 | Cc1ccc2cccc(NC(=O)c3ccc(OC(C)C)cc3)c2n1 | -11.7% | -12.6%
4 | Fc1ccc(-n2ncc3c(Nc4ccc(Oc5ccccc5)cc4)ncnc32)cc1 | -13.7% | -17.4%
5 | COC(=O)c1ccc(NC(=O)C2CCN(C(=O)c3ccc(F)cc3)CC2)cc1 | 6.5% | -5.5%
6 | COc1ccc(-c2coc3cc(O)ccc3c2=O)cc1 | -5.3%&-11.2% | -10.2%
7 | COc1ccc(OC)c(C2=NOC(C(=O)Nc3c(C)n(C)n(-c4ccccc4)c3=O)C2)c1 (stereo not given) | -8.0% | i
8 | COC(=O)C(C)Oc1cc(C)ccc1COc1ccc(-n2nc(C)n(C(F)F)c2=O)cc1 (stereo not given) | 2.3% | -13.3%
9 | O=S(=O)(NCCc1csc2nc(-c3ccc(Cl)cc3)nn12)c1ccc(Oc2ccccc2)cc1 | u | u
10 | COc1cccc(-c2nc(Cl)nc3cc(Cl)ccc23)c1 | -2.2% | -4.0%
11 | CC(N)c1cccc(Cl)c1Cl (stereo not given) | -8.7% | -11.9%
12 | CC(C)c1c(C(=O)NCC2(N3CCOCC3)CCCC2)cnn1-c1nccc(-c2cccs2)n1 | -7.7% | -13.0%
13 | CCN(CC)CCNC(=O)c1c2c(nc3ccccc13)C(=O)N(C1CCCCC1)C2 | -10.7% | -8.6%
14 | COC(=O)C1=C(c2cccc(OC)c2OC)C[C@@H]2CC[C@H]1N2C(=O)NCCCOC(C)C | -10.4% | i
15 | O=C(Nc1nnc(C2CCCCC2)s1)c1ccco1 | -3.8% | x
16 | O=C(CC1OC(=O)c2ccccc21)c1ccco1 (stereo not given) | -3.8% | -8.9%
17 | OCCNc1cnc2ccccc2n1 | -6.7% | 4.7%
18 | O=c1cnnc(N/N=C/c2c[nH]c3ccccc23)[nH]1 | -15.7% | u
19 | Cc1ccc(Nc2cc(=O)n(C3CCCCC3)c(=O)[nH]2)cc1C | -7.2% | x
20 | O=C1C2CCCCC2C(=O)N1c1nccs1 (stereo not given) | 6.2% | i
21 | CCNC(=S)N/N=C/c1cccs1 | -12.4% | -19.6%
22 | Cc1[nH]c(=O)nc(SCc2cccc(Cl)c2)c1C#N | 2.4% | 12.3%
23 | O=C(c1ccco1)N1CCN(C(=O)c2ccc(-c3ccc([N+](=O)[O-])cc3)o2)CC1 | -14.5% | i
24 | O=C(/C=C/c1cn(-c2ccccc2)nc1-c1ccc2c(c1)OCCO2)NCCO | -9.5% | -7.7%
25 | Cc1csc(NC(=O)c2cc3c(s2)CCC3)n1 | -5.3% | x
26 | Cc1ccccc1OCC(=O)Nc1ccc(S(=O)(=O)Nc2ccccn2)cc1 | -8.2% | -6.7%
27 | Cc1cc(C)c(NC(=O)c2c(C)oc3c2C2=NCCN2C=N3)c(C)c1 | 1.7% | -5.8%
28 | Cc1cc(C)n2nc(SCc3nnc(SCc4ccccc4Cl)s3)nc2n1 | 7.8% | -0.8%
29 | COc1ccc(-c2c(N)n[nH]c2C)cc1OC | -1.8% | -7.6%
30 | CCC(=O)Nc1ccc(N2CCN(C(=O)c3ccco3)CC2)c(Cl)c1 | -19.8% | i
31 | CCOc1ccc2oc(C(=O)N(CCOC)c3c(N)n(CC(C)C)c(=O)[nH]c3=O)c(C)c2c1 | -5.1% | -11.3%
32 | COc1ccc(C2C(C(C)=O)=C(O)C(=O)N2CCCn2ccnc2)cc1OC (stereo not given) | 24.7% | -3.1%
33 | O=C(CCNC(=O)C1CCN(S(=O)(=O)c2ccc(F)cc2)CC1)NCc1ccccc1 | -15.7% | i
34 | O=C(c1ccc2nc(Cc3ccccc3F)oc2c1)N1CC[C@H](O)C1 | -7.9% | i
35 | O=C(O)CSc1nnc(CNc2ccc(Cl)cc2)n1Cc1ccccc1 | -4.7% | -11.8%
36 | O=C(NCCc1c[nH]c2ccccc12)C(=O)NCC1OCCN1S(=O)(=O)c1ccccc1 (stereo not given) | -17.6% | -5.2%
37 | COc1ccc(C2CC3(CC(C)(C)NC(=S)N3)Oc3cc(O)cc(C)c32)cc1OC (stereo not given) | -18.6% | -7.7%
38 | O=C(Nc1ccn(Cc2ccccc2)n1)c1n[nH]c([N+](=O)[O-])c1Cl | -10.7% | -13.5%
39 | CN(C)C(=O)N1CCC(C(=O)NC2CCCCCCC2)CC1 | -9.0% | -21.8%
40 | CCCCSc1nc2c(cnn2-c2ccc(C)c(C)c2)c(=O)[nH]1 | -16.4% | i
41 | COc1ccc(NC(=O)CNC(=O)Cn2ccc3ccccc3c2=O)c(OC)c1 | -10.9%&0.0% | -10.9%&-8.4%
42 | O=C1NC(=O)N(c2ccccc2)C1=O | 4.9% | -12.2%
43 | O=C(CCC1CCCC1)NCc1cccs1 | -10.9% | -13.3%
44 | Cc1cc(C)cc(OCC(=O)Nc2ccc(Cl)c(-c3nc4ncccc4o3)c2)c1 | -17.4% | -11.0%
45 | CC1(C(=O)NCc2ccccc2)CCC(=O)N1CCOc1ccccc1 (stereo not given) | -1.6% | 2.3%
46 | CC(=O)Nc1ccc(/C(C)=N/NC(=O)c2ccccc2Cl)cc1 | -24.1% | i
47 | CC(=O)c1cc2c(cc1NC(=O)CCn1cnnn1)OCO2 | 1.1% | -12.5%
48 | Nc1nc(NCc2ccco2)nc(N2CCOCC2)c1[N+](=O)[O-] | -8.2% | -20.8%
49 | C=C(C)C1CC=C(CN2CCC(O)CC2)CC1 (stereo not given) | -10.8% | -5.0%
50 | O=C1NCCN1c1ncc([N+](=O)[O-])s1 | -11.2% | i
51 | Cc1ccc(CN(Cc2ccco2)C(=S)NCC(=O)NCc2cccnc2)cc1 | -10.8% | -12.1%
52 | O=C(CCN1C(=O)/C(=C/c2cccc(Br)c2)SC1=S)NNC(=O)c1cccnc1 | -8.6% | -14.0%
53 | COC(=O)c1ccc(NC(=S)Nc2cccc(C)n2)cc1 | -10.0% | i
54 | Nc1nonc1-n1nnc(C(=O)N/N=C/c2ccccc2O)c1CN1CCCC1 | u | u
55 | COC(CNC(=O)c1ccc2c(c1)ncn2-c1cc(C)cc(C)c1)OC | -16.3% | -0.3%
56 | COc1ccc(C(=O)c2cn(Cc3cccc(C)c3)c3cc4c(cc3c2=O)OCO4)cc1 | -9.8% | -10.3%
57 | O=C(O)c1nn(-c2ccc(F)cc2)ccc1=O | -8.7% | -5.7%
58 | COc1ccc(C(=O)CSc2nnc(-c3ccco3)o2)cc1 | -21.9% | -10.7%
59 | COc1cccc2c(N/N=C/c3ccc(O)c(O)c3)cc(C)nc12 | -6.7% | -8.5%
60 | COc1ccc(-c2nc(CSc3nncn4c3cc3occc34)c(C)o2)cc1 | -22.8% | -7.3%

# (listing goes on)
entry | structure | VACV Venus inh | Vaccinia mCherry
61 | CCOc1ccc(OCCOCCN2CCOCC2)cc1 | -6.5% | -16.9%
62 | ClC1=CCC2CN(CCN3CCCCC3)CC2C1 (stereo not given) | -4.1% | i
63 | Cc1cc(C)c(S(=O)(=O)Nc2ccc(N3CCOCC3)cc2)c(C)c1 | -4.8% | u
64 | COc1ccc2nc(NC(=O)c3cccc(OCc4c(C)noc4C)c3)sc2c1 | u | u
65 | Cc1ccc(NC(=O)COC(=O)C2CC2C)c(S(=O)(=O)N2CCCCC2)c1 (stereo not given) | -15.7% | i
66 | Cc1ccc(N(CC(=O)Nc2cc(Cl)ccc2Oc2ccccc2)S(C)(=O)=O)c(C)c1 | u | x
67 | CCOC(=O)c1ccccc1-n1nnnc1C | -14.6% | -19.7%
68 | CN1C(=O)CS/C1=N\NC(=O)COc1cccc2cccnc12 | -11.9% | -0.1%
69 | O=c1[nH]n2c(-c3ccccc3)nc(O)c2c2ccccc12 | 1.2% | i
70 | CCCCOc1ccc(Cn2c(=O)oc3ccc(C)cc32)cc1OC | -11.9% | -9.0%
71 | O=C(NNS(=O)(=O)c1ccc(C(=O)NC2CCCC2)cc1)c1ccncc1 | -6.9% | -6.8%
72 | CC1CC(C)CN(C(=O)COC(=O)C2CCN(S(=O)(=O)c3c(Cl)cccc3Cl)CC2)C1 (stereo not given) | -15.7% | -12.3%
73 | COc1ccc(S(=O)(=O)NNc2nc(C)cc(C)n2)cc1[N+](=O)[O-] | -4.3% | i
74 | COc1ccc(CNC(=O)C2CCCN(C(=O)Nc3ccccc3OC)C2)cc1 (stereo not given) | -3.1% | -4.6%
75 | CCOC(=O)C1=C(C)N=c2s/c(=C/c3cccc([N+](=O)[O-])c3O)c(=O)n2C1c1cc(OC)c(OC)c(OC)c1 (stereo not given) | 44.2%[activator] | -16.5%
76 | Cc1cccnc1NC(=O)c1csnn1 | -7.0% | -4.8%
77 | CS(=O)(=O)c1ccc(C(=O)OCC(=O)N(CCc2ccccc2)Cc2ccccc2)cc1 | -11.1% | u
78 | O=S(=O)(CCN1CCCC1)NCCNS(=O)(=O)c1ccc(F)cc1Br | -16.9% | -11.9%
79 | COc1ccc(OCC(=O)Nc2nnc(S(=O)(=O)N3CCCCCC3)s2)cc1 | 2.1%&1.7% | -13.5%&-6.8%
80 | CC(C)(C)c1nc(SCC(=O)N2CCCC2)c2ccccc2n1 | -4.5% | -8.7%
81 | CCOC(=O)C1Sc2[nH]c(=O)sc2C(c2ccc(Cl)cc2)C1C(=O)OCC (stereo not given) | -11.1% | -12.9%
82 | O=c1[nH]c(CSc2nc(-c3ccc(F)cc3)cs2)nc2ccccc12 | -8.0% | i
83 | O=C(CN1CCC(C(=O)c2ccc(F)cc2)CC1)Nc1ccccc1 | u | u
84 | O=S(=O)(c1cccs1)N1CCc2ccccc21 | -9.1% | x
85 | COc1cc2c(cc1NC(=O)c1cccnc1)CCCC2 | -0.6% | -5.9%
86 | Cc1ccc(-c2ccc(CN3C(CC(C)C)C(=O)N(Cc4cn(CC5CCCCC5)nn4)CCS3(=O)=O)cc2)cc1 (stereo not given) | -21.7% | i
87 | O=S(=O)(NCCc1ccccc1)c1cccc2nsnc12 | -18.3% | -14.1%
88 | CC1(C)CC(=O)C=C(NNC(=O)c2ccccc2O)C1 | -5.9% | -0.2%
89 | Cc1ccc(CNC(=O)Cc2c(C)c3cc4c(C)coc4cc3oc2=O)cc1 | 0.2% | -7.5%
90 | CC(=O)c1ccc(NC(=O)C2CCC(CNS(=O)(=O)c3cccs3)CC2)cc1 (stereo not given) | -0.6% | -9.6%
91 | COc1ccc(NC(=O)CN2CCN(CC(=O)Nc3ccccc3Cl)CC2)cc1 | u | x
92 | COc1ccc(Br)cc1S(=O)(=O)NNC(=O)c1c(C)nc2ccccn12 | -6.2% | -3.8%
93 | CC1=CC2=NC(=O)/C(=C\c3cc(C)n(-c4ccc(F)cc4)c3C)C(=N)N2O1 | -14.3% | -15.5%
94 | NN1C(=O)/C(=C\c2ccco2)SC1=S | -3.2%[7.34 µM] | -1.6%[7.34 µM]
95 | Cc1ccccc1NC(=O)N1CCc2c(sc3c2CCCC3)C1c1ccccc1 (stereo not given) | -12.4% | -15.7%
96 | CCN(C[C@H]1N[C@@](CC)(C(=O)OC)[C@H]2C(=O)N(Cc3ccccc3)C(=O)[C@@H]12)C(=O)NC(C)C | -9.8% | i
97 | O=C(COC(=O)c1ccc([N+](=O)[O-])o1)NC1CCCc2ccccc21 (stereo not given) | -9.6% | -4.2%
98 | CC(/C=N\N1CCN(c2ccc(Cl)cc2)CC1)=C\c1ccccc1 | u | x
99 | Oc1c(C(c2ccc(Cl)cc2)N2CCOCC2)sc2nc(-c3ccco3)nn12 (stereo not given) | -6.4% | -14.1%
100 | COc1cc(NC(=O)CCCc2nnc3n(C)c(=O)c4sccc4n23)cc(OC)c1OC | -3.6% | -0.5%
101 | Cc1ccc(CNc2nc(Cl)c(C#N)s2)cc1 | -14.9% | i
102 | Cc1cccc(-n2nc3c([n+]2[O-])CCc2nonc2-3)c1C | -10.3% | -13.8%
103 | CCOC(=O)c1c(S(=O)(=O)NCC(=O)Nc2ccc(F)cc2C)c(C)n(C)c1C | -22.4% | -26.4%
104 | Cc1c(C(=O)NCc2ccc(F)cc2)sc(=O)n1Cc1ccccc1F | 5.3% | 12.2%
105 | CCOC(=O)c1ccc(NC(=O)c2nn(C)c3c2COc2ccccc2-3)cc1 | -17.5% | -25.3%
106 | COc1ccc(CN(CC(=O)NC2CCCC2)C(=O)c2ccc(-c3ccccc3)[nH]2)cc1 | -20.1% | i
107 | CN(C)C(=O)c1c([N+](=O)[O-])ncn1C | -19.0% | -12.9%
108 | O=C(NC(c1ccc(Cl)cc1)c1ccsc1)C1CCN(Cc2cccc(C(F)(F)F)c2)CC1 (stereo not given) | -29.5% | -12.9%
109 | CCOc1c(N2CCOCC2)c(=O)c1=O | -5.4%[7.34 µM] | 0.0%[7.34 µM]
110 | COc1cccc(N2CCN(c3ncnc4c3c(-c3ccccc3)cn4-c3ccc(C)cc3)CC2)c1 | 1.2% | -11.4%
111 | COc1cc(NC(=O)CCc2c(C)nn(-c3ccc4nncn4n3)c2C)cc(OC)c1OC | -3.2% | -4.9%
112 | Cc1ccc(-c2csc3nnc(SCC(=O)Nc4cccc(C)n4)n23)cc1 | -0.7% | -15.0%
113 | CCn1c(=O)c([N+](=O)[O-])c(N2CCSCC2)c2ccccc21 | u | u

# Compounds listed so far with a cyano group (2):
entry | structure | VACV Venus inh | Vaccinia mCherry
22 | Cc1[nH]c(=O)nc(SCc2cccc(Cl)c2)c1C#N | 2.4% | 12.3%
101 | Cc1ccc(CNc2nc(Cl)c(C#N)s2)cc1 | -14.9% | i
